Insulin prom inh = TRM-6 insulin promoter activity inhibition; TRM-6 cells (human fetal islet line), insulin promoter-eGFP reporter, imaging; reporter expression induced with tamoxifen; inhibition, % at 2 µM; 130,000 tested, 0.9% active; AID 1273;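 active means inhibition above the mean plus 3 SD, with well images judged a real hit on visual review, cut at about 60% in these data, passing the limit was not always enough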
GALR2 ag = GALR2 (human) receptor agonism; GALR2-expressing cells, agonist activation read-out; AID 803; activation, %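 (tested at 5 µM)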; 140,000 tested, 0.48% active; O43603;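 active means above mean plus 3 SD of all compounds, about 5% in these data, not always enough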;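 further: 0% = vehicle buffer wells and 100% = reference agonist at full effect; tested in CHO reporter cells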
HSV replic up = HSV replication enhancement | AID 1956 | HSV replication augmentation in cells, fold increase | maximum fold increase | 220,000 tested, 0.005% active;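 active means peak rise of 1.5-fold or more in the series; tested in PC3 cells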;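 further: first round at 10 µM; read as green reporter fluorescence; hits show the peak of a series up to 25 µM; 1 = signal of infected wells without compound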
RGS16-Gao HTS = RGS16-Galphao interaction regulator (human). bead-based flow cytometry RGS16-Galphao binding, fluorescence; actives lie on both sides. binding response (% of control), % at 10 µM. 220,000 tested, 0.38% active;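 active means below 25% or above 175%, edge rows of some plates excepted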;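 further: Galphao activated by GDP with aluminum fluoride before binding; 100% = wells without compound and 0% = beads without RGS; some results beyond the cut were filed as inactive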
Target sequence (O15492 whole entry, looked up): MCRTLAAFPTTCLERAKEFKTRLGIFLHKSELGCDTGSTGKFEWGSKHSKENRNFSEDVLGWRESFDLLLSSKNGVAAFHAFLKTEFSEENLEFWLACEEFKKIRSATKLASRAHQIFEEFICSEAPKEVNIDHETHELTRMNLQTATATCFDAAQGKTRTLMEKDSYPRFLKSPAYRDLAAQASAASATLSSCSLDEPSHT
Target sequence (P09471 whole entry, looked up): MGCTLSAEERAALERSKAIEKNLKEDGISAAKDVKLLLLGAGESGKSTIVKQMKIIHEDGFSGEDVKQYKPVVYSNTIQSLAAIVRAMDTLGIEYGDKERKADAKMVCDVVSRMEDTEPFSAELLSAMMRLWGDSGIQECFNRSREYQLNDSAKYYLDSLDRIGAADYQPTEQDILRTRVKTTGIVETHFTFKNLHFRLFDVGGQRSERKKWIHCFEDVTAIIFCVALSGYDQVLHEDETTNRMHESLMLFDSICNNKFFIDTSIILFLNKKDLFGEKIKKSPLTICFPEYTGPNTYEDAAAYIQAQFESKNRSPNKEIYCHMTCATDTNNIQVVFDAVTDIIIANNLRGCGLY
PKD1 inh = PKD1 (human) kinase inhibition. AID 797. Q15139. 200,000 tested, 0.056% active. PKD1 kinase fluorescence polarization assay. inhibition, %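 (about 10 µM by stock and volumes)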;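 active means inhibition of 50% or more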;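 further: controls were vehicle for no effect and a reference inhibitor for full effect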
Insulin prom inh cell count = further read-out of Insulin prom inh, marked with its call; normalized cell count, %; measured here: cell count, toxicity; reference of the scale not given here;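 cells exposed to compound for 48 h; stained nuclei by imaging scaled within each plate; lower means fewer cells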
HSV replic up primary fold = second read-out of HSV replic up, no call of its own (marks repeat the call); fold increase; compound at 10 µM; measured here: primary screen fold increase 10 uM; tested in PC3 cells;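 GFP signal in the first replicate; 1 = infected wells without compound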
Numbers without * were called inactive; i = inactive; . = no result given. Compounds were not picked by outcome. About 1.3% of those tested had a hit in this group.

Order of results – Insulin prom inh, Insulin prom inh cell count, GALR2 ag, HSV replic up, HSV replic up primary fold, RGS16-Gao HTS, PKD1 inh
- Cc1c(C(=O)Nc2ccccc2-c2ccccc2)cccc1[N+](=O)[O-]
 : 23, 109, -0.2, i, 1, 103, -1
- CCOc1cc(C(=O)Nn2cnnc2)cc(OCC)c1OCC
 : -50, 130, ., i, 0.98, 102, 1
- Cn1c(-c2ccccc2)c(/C=N/NC(=O)c2ccc(O)cc2)c2ccccc21
 : ., ., ., i, 0.78, 93, .
- CCC(=O)NC1(Cc2ccc(O)cc2)CCCCC1
 : 35, 115, ., i, 0.85, 98, -3
- Cc1c(C(=O)N2CCc3ccccc32)oc2c1C(=O)CC(C)(C)C2
 : 6, 117, -0.1, i, 0.99, 101, 1
- Cc1cccc(N2C(=N)SCC2=O)c1C
 : 24, 111, 1.1, i, 0.88, 95, -1
- COc1ccc(Cn2ccnc2)cc1[N+](=O)[O-]
 : 37, 126, 0.3, i, 0.93, 97, 8
- N#Cc1ccc(C23CC4(C2)[C@H](CN(Cc2ccc(C(F)(F)F)cc2)[C@@H]4c2ccccc2)C3c2ccc(Cl)nc2)cc1 (stereo not given in full)
 : ., ., ., i, 0.54, 99, .
- O=C(NC1CCCCCC1)C(Cc1ccccc1)n1cccc1 (stereo not given)
 : ., ., ., i, 0.96, 103, .
- COc1cc(C(=O)N2CCC(C(=O)Nc3cccc(C(C)=O)c3)CC2)cc(OC)c1OC
 : 23, 138, -1.7, i, 0.99, 84, -6
- Cc1nc(NC(=O)c2ccccc2)sc1Cc1ccc2c(c1)OCO2
 : 47, 187, 0.2, i, 0.89, 101, 27
- CN1CCN(C(=O)c2ccc(C(C)(C)C)cc2)CC1
 : 21, 133, -0.5, i, 1.1, 99, -2
- CCOC(=O)c1ccc(NC(=O)Cn2nnc(-c3ccc(F)cc3)n2)cc1
 : -3, 98, -1.2, i, 0.8, 104, 15

An excerpt of these results, field by field.
O=C(NC1CCCCCC1)C(Cc1ccccc1)n1cccc1 (stereo not given)
  Insulin prom inh = .; Insulin prom inh cell count = .; GALR2 ag = .; HSV replic up = i; HSV replic up primary fold = 0.96; RGS16-Gao HTS = 103; PKD1 inh = .
COc1cc(C(=O)N2CCC(C(=O)Nc3cccc(C(C)=O)c3)CC2)cc(OC)c1OC
  Insulin prom inh = 23; Insulin prom inh cell count = 138; GALR2 ag = -1.7; HSV replic up = i; HSV replic up primary fold = 0.99; RGS16-Gao HTS = 84; PKD1 inh = -6
Cc1nc(NC(=O)c2ccccc2)sc1Cc1ccc2c(c1)OCO2
  Insulin prom inh = 47; Insulin prom inh cell count = 187; GALR2 ag = 0.2; HSV replic up = i; HSV replic up primary fold = 0.89; RGS16-Gao HTS = 101; PKD1 inh = 27

A stretch from further up, for reference:
Order of results – Insulin prom inh, Insulin prom inh cell count, GALR2 ag, HSV replic up, HSV replic up primary fold, RGS16-Gao HTS, PKD1 inh
- CN1CCN(C(=O)c2ccc(C(C)(C)C)cc2)CC1
 : 21, 133, -0.5, i, 1.1, 99, -2
- CCOC(=O)c1ccc(NC(=O)Cn2nnc(-c3ccc(F)cc3)n2)cc1
 : -3, 98, -1.2, i, 0.8, 104, 15

Quoted at random: three records from the list, in no set order.
Order of results – Insulin prom inh, Insulin prom inh cell count, GALR2 ag, HSV replic up, HSV replic up primary fold, RGS16-Gao HTS, PKD1 inh
- COc1cc(C(=O)N2CCC(C(=O)Nc3cccc(C(C)=O)c3)CC2)cc(OC)c1OC
 : 23, 138, -1.7, i, 0.99, 84, -6
- O=C(NC1CCCCCC1)C(Cc1ccccc1)n1cccc1 (stereo not given)
 : ., ., ., i, 0.96, 103, .
- N#Cc1ccc(C23CC4(C2)[C@H](CN(Cc2ccc(C(F)(F)F)cc2)[C@@H]4c2ccccc2)C3c2ccc(Cl)nc2)cc1 (stereo not given in full)
 : ., ., ., i, 0.54, 99, .

Source: PubChem
